Mtb bLac sens: beta-lactam sensitization of Mtb H37Rv, H37Rv; M. tuberculosis H37Rv growth with meropenem, percent inhibition; hits of this screen are not shown here; inhibition, % at 25 µM; hit rate 0.27% among 330,000; AID 434955, 2010;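 active means about 74% or more and at least 40 points above the plate without the antibiotic, then above 30% in a dose series; inconclusive means first-round hits that could not be retested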;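 further: growth measured after seven days incubation then overnight dye step; 0% = bacteria only wells and 100% = bacteria with antibiotic; twin plates without the antibiotic show which effects depend on it; some results filed as inactive read as strong as hits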
RecA splice inh: Mtb RecA intein splicing inhibitors, primary screen, biochemical, fluorescence, HTS; hit rate 0.75% among 290,000; Protein RecA (Mycobacterium tuberculosis (strain ATCC 25618 / H37Rv)), P9WHJ3; inhibition, %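 (about 9 µM by stock and volumes)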; cell-free RecA intein splicing; in the data active means inhibition above about 30%; inconclusive means no clear call, values can overlap the other calls;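 further: 0% = vehicle wells and 100% = reference inhibitor control wells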
Target sequence (P9WHJ3 whole entry, looked up, canonical isoform): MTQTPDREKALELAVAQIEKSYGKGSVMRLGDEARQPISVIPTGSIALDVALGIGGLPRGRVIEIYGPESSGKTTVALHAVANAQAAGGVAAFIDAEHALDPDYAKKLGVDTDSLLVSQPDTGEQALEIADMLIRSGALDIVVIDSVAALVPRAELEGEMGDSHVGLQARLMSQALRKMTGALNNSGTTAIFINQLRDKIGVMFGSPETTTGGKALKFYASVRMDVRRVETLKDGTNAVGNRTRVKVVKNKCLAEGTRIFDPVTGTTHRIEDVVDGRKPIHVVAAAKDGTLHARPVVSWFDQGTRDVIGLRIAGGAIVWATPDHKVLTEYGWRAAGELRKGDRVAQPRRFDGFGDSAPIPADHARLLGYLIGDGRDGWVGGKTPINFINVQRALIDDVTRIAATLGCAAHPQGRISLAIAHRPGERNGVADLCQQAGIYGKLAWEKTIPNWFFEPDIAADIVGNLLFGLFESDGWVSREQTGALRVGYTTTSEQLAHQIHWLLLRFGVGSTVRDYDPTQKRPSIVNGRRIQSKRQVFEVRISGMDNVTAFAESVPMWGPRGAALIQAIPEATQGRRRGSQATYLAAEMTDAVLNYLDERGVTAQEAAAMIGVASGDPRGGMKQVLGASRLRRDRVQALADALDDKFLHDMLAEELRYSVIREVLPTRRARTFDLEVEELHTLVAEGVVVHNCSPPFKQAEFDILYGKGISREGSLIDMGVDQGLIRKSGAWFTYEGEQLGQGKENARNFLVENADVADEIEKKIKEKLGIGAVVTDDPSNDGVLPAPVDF
Arbovirus anti: antivirals against arbovirus infection, primary screen, cell-based, full library, 10K replicate subset. hit rate 0.37% among 200,000. arbovirus infection cell-based antiviral screen. AID 1251, 2008. inhibition, % at 10 µM;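 active means inhibition from about 30%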;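 further: bluetongue infection of BSR cells; cell survival read as ATP light after 72 h; 0% = infected wells without compound and 100% = uninfected wells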
YopH PTP inh: YopH tyrosine phosphatase inhibitors, primary screen, biochemical, fluorescence Ex485/Em525 | hit rate 0.16% among 140,000 | YopH tyrosine phosphatase [Yersinia enterocolitica] | AID 898, 2007 | inhibition, %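 (about 10 µM by stock and volumes)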;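 active means inhibition of 50% or more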;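 further: controls were vehicle for no effect and minimum signal wells for full effect; inactives centre near -20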
Mtb growth: M. tuberculosis H37Rv growth inhibitors, H37Rv strain (AID 1626) | M. tuberculosis H37Rv growth inhibition; higher % means a stronger effect | inhibition, % at 10 µM; hits with a dose series show IC50 in µM | hit rate 0.95% among 220,000;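 active means confirmed in a dose series; inconclusive means inhibition above 80% but not taken into the dose series; inactive means below 80% or under 30% at every dose of the series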;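 further: bacteria incubated seven days before Alamar blue readout; 0% = bacteria only wells and 100% = bacteria with antibiotic wells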
Arbovirus anti repeat: recorded beside Arbovirus anti, whose call it bears; inhibition, %; measured here: 10K subset replicate screen; many hits read low in the repeat;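 first of two repeat runs on a subset; 0% = infected and 100% = uninfected wells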
* marks the source's active call; other numbers are inactive results; ? = inconclusive; . = not tested or not shown. Only part of the results is shown (hit frequency here may not be typical).

SMILES	Mtb bLac sens	RecA splice inh	Arbovirus anti	YopH PTP inh	Mtb growth	others
CN=C1SC(CC(=O)Nc2ccc(F)cc2F)C(=O)N1/N=C(\C)c1cccc(OCC(=O)O)c1 (configuration not stated)	5	-0.1	.	.	-4%
COC(=O)c1sccc1S(=O)(=O)NCc1ccc(S(N)(=O)=O)cc1	?	2.0	.	.	.
CCN(CCNS(=O)(=O)c1ccc2[nH]c(=O)sc2c1)c1ccccc1	0	-8.2	23	-22	-1%	Arbovirus anti repeat=16
Cc1ccc(N=C2NC(=O)/C(=C/C=C/c3ccco3)S2)cc1C	87	29	28	-9	.
Cc1ccc(S(=O)(=O)CCc2nnc(N)s2)cc1	-3	-2.3	-4	10	-11%
N#Cc1ccc(S(=O)(=O)N2CCCN(c3ccc(C(F)(F)F)cn3)CC2)cc1	-7	2.7	.	.	3%
Cc1nc(Nc2nc3ccccc3o2)nc(C)c1C	4	-0.9	-7	.	-9%
CCOc1cc(CNC(CC)CO)ccc1OCC(=O)Nc1cccc(C(F)(F)F)c1 (configuration not stated)	1	-0.1	-7	.	15%
CC1C(=O)Nc2ccccc2N1C(=O)c1c(F)cccc1F (configuration not stated)	-5	4.7	.	.	.
CCOc1ccccc1Nc1nc(-c2sc(NC(=O)c3cccc(Cl)c3)nc2C)cs1	10	-9.3	-15	9	-1%
Cc1ccccc1OCC(=O)NCCN1CCCC1	1	.	15	-3	-3%
O=C(O)c1ccc(S(=O)(=O)N2CCCc3ccccc32)cc1	-2	-3.0	.	.	.
O=C(CN1CCCC1)Nc1cc(F)ccc1F	21	-2.1	3	.	4%
Cc1ccc(S(=O)(=O)N2CCCC(C(=O)NCCC(C)C)C2)cc1 (configuration not stated)	4	4.4	-2	.	-3%
C/C(CCS(=O)(=O)c1ccccc1)=N/O	-7	0.5	-2	.	2%
COc1ccc(C(=O)Nc2ccccc2C(=O)Nc2ccccn2)cc1	-2	-1.2	.	.	.
CC(NC(=O)c1cccc(Br)c1)c1ccccc1 (configuration not stated)	-5	8.0	-7	.	-3%
CCC(C)NS(=O)(=O)c1ccc(OCC(=O)Nc2ccc3c(c2)OCO3)cc1 (configuration not stated)	-2	-1.2	-10	-45	8%
COc1ccc(S(=O)(=O)N2CCC(C(=O)N3CCCCC3)CC2)cc1Cl	7	-2.3	11	7	0%
CC1=NCC(C)c2c1[nH]c1ccccc21 (configuration not stated)	0	.	10	7	-5%
Cc1ccc(S(=O)(=O)c2c(N)n(/N=C/c3ccco3)c3nc4ccccc4nc23)cc1C	29	2.2	-4	-35	14%
COc1ccc(C(=O)O/N=C(\N)c2cccc(C)c2)cc1OC	11	-0.8	.	.	.
CC1CC(C)CN(S(=O)(=O)c2ccc(C(=O)N(c3ccccn3)C3CCCCC3)cc2)C1 (configuration not stated)	-6	1.8	8	.	4%
COc1ccccc1CNC(=O)c1cc2c(=O)[nH]c3ccccc3c2n1C	-2	3.1	1	.	1%
O=S(Cc1ccc(Cl)cc1)c1ncc(CO)n1Cc1ccccc1 (configuration not stated)	11	2.8	1	.	-2%
CCC(C(=O)N1CCC(N2CCCCC2)CC1)n1nc(C)c2sc3ccccc3c2c1=O (configuration not stated)	3	-28	.	.	.
O=C(CCN1C(=O)C2C3C=CC(C4CC34)C2C1=O)OCC(=O)c1ccccc1 (configuration not stated)	2	0.9	.	.	.
CC1C=CCC2C(=O)N(c3cccc(C(=O)Nc4ccc(F)cc4)c3)C(=O)C12 (configuration not stated)	-2	2.0	.	.	.
CCN(CC)CCNC(=O)NC(=O)c1ccc(Cl)cc1	-12	-1.9	4	-45	-6%
Cc1ccc(N2CCN(S(=O)(=O)c3ccc(F)cc3)CC2)c(C)c1	?	1.6	22	-20	20%	Arbovirus anti repeat=15
NC(=S)NN=C1c2cc(S(=O)(=O)N3CCOCC3)ccc2-c2ccc(S(=O)(=O)N3CCOCC3)cc21	?	-1.7	-3	-3	-15%
Cc1cccc(OCC(O)Cn2c(-n3nc(C)cc3C)nc3c2c(=O)[nH]c(=O)n3C)c1 (configuration not stated)	0	0.3	2	-41	1%
COc1ccc(CNC(=O)C2CCC(CNc3c(N4CCCCC4)c(=O)c3=O)CC2)cc1 (configuration not stated)	-3	1.3	.	.	-6%
COc1ccc(N2CCN(C(=O)c3cc4ccccc4o3)CC2)cc1	-1	-0.1	.	.	.
COc1cc(OC)cc(C(=O)NC2CCN(CC(=O)Nc3cccc4ccccc34)CC2)c1	-6	0.4	2	-17	37%
CCC(/C=C1\Sc2ccc(OC)cc2N1CCO)=C\c1sc2ccc(OC)cc2[n+]1CCO	96	.	-19	18	7.3µM*
c1ccc(-c2ncc(-c3ccn[nH]3)s2)cc1	-1	7.4	5	.	-5%
COc1ccc2nc(/C(C#N)=C\c3ccc(Oc4ccc([N+](=O)[O-])cn4)cc3)[nH]c2c1	3	-1.3	-18	-11	42%
Cc1cccc(N/C=C(\[N+](=O)[O-])S(=O)(=O)c2ccccc2)c1C	5	0.9	4	.	-2%
O=C1S/C(=C\c2ccc(Cl)cc2)C(=O)N1CCn1cnnn1	1	4.1	2	.	-1%
O=C(O)C1CCCN(S(=O)(=O)c2ccc3c(c2)OCCO3)C1 (configuration not stated)	-5	-3.1	5	.	-9%
Cc1ccc2cc(C#N)c(NCCNC(=S)NCCCN(C)C)nc2c1C	-2	-25	-23	.	-3%
OCCNCCSc1ccc(Cl)cc1	0	0.5	-5	.	2%
O=C(CCn1c(=S)oc2ccccc21)N1CCN(c2ccc(F)cc2)CC1	-5	0.4	.	.	5%
CCCCN(CC)C(=O)Cc1cn(C)c2ccccc12	-5	-0.1	1	-16	-3%
CCC(=O)Nc1ccc(Br)c(Cl)c1	90	3.6	4	-31	.
CC(C)OCC(O)CN1CCNCC1 (configuration not stated)	-4	-0.8	6	-16	-6%
COc1cccc(CNC(=O)CCC2CCCN(C(=O)c3ccc(C)nc3)C2)c1 (configuration not stated)	-13	-2.1	-1	.	-3%
Cc1ccc(SCC(=O)NC2CC2)cc1	?	0.1	.	.	.
O=C(CSc1n[nH]c(-c2ccncc2)n1)Nc1ccc(Cl)cc1	0	0.3	.	.	.
Cc1ccc(NC(=O)CCNS(=O)(=O)c2ccc3c(c2)CCC(=O)N3)cc1C	-4	-1.4	.	.	.
COc1ccc(C(=O)CSc2nnc(CCc3ccccc3)n2-c2ccccc2)cc1	-2	14	-2	-27	7%
COc1cc(CN2CCCC(C(=O)c3sccc3C)C2)cc(Cl)c1O (configuration not stated)	-2	0.1	-3	.	-11%
Cn1nc(-c2ccccc2)c(CSc2ccccc2)c1Cl	26	13	-16	-17	0%
CC(C)CC(=O)Nc1ccc2c3c(cccc13)CC2	77	-3.2	-1	-4	2%
COc1ccccc1N1CCN(C(=O)c2cn(C)c3ccc(S(=O)(=O)N4CCOCC4)cc3c2=O)CC1	4	0.2	.	.	.
CCOC(=O)C(NC(=O)c1ccc(F)cc1)(Nc1nnc(C)s1)C(F)(F)F (configuration not stated)	0	-0.2	2	-31	-4%
Cc1ccc(C(C)C)c(OCC(=O)Nc2ccc(N3CCN(S(C)(=O)=O)CC3)cc2)c1	-9	.	4	-17	-7%
COC(C(=O)Nc1ccc(F)cc1)c1ccccc1 (configuration not stated)	-5	-0.6	0	-23	-2%
COc1cc(C(=O)NC2CCCc3ccccc32)ccc1OCC(=O)Nc1ccc(F)cc1 (configuration not stated)	-1	-0.1	-6	-22	6%
New compounds follow.
SMILES	Mtb bLac sens	RecA splice inh	Arbovirus anti	YopH PTP inh	Mtb growth	others
CC(=O)Nc1ccccc1C(=O)C(=O)Nc1cccc(Br)c1	-2	-0.6	-10	.	-8%
CC(/C=C/c1ccc(N(C)C)cc1)=N/N=C1/NC(=O)CC(C(=O)Nc2ccc(Cl)cc2)S1 (configuration not stated)	93	-3.9	2	-20	35%
COc1cc2c(cc1OC)CN(C1CCC(C)CC1)CC2 (configuration not stated)	0	1.4	.	.	.
COc1cccc(C(=O)Nc2cccc(C(=O)NCC(C)C)c2)c1	5	0.5	-1	-19	8%
CCOC(=O)CSc1ccc2nnc(-c3ccccc3)n2n1	2	0.2	3	-26	-1%	Arbovirus anti repeat=2
CCN(CC)S(=O)(=O)c1ccc(OCC(=O)NC(=O)c2ccccc2OC)c([N+](=O)[O-])c1	-4	1.1	.	.	.
N#C/C(=C\c1cccc(NC(=O)c2ccccc2Cl)c1)C(=O)NCCc1ccccc1	-2	36*	0	-16	2%
O=C(CSc1ncccn1)NC1CCS(=O)(=O)C1 (configuration not stated)	4	-0.6	.	.	.
COc1cc(/C=C(\NC(=O)c2ccccc2)C(=O)NCCO)c([N+](=O)[O-])cc1OC	0	0.0	5	-23	-4%
Cc1ccc(-n2nc3c(N4CCC(C(=O)N5CCCCCC5)CC4)nnc(C)c3c2C)cc1	78	-0.5	.	.	.
COc1cccc(CN2CCNC(=O)C2CC(=O)NCCOc2cccnc2)c1 (configuration not stated)	-6	-2.1	-4	.	7%
O=C(NC1CCCCC1)C(c1ccccc1)N(Cc1ccco1)C(=O)c1csnn1 (configuration not stated)	2	-0.7	.	.	.
Cc1ccccc1S(=O)(=O)NC1OC(=O)C(Oc2ccccc2)=C1Br (configuration not stated)	-7	-0.9	12	.	-9%
CC(C)c1nc2sc(C(=O)O)c(N)c2c2c1CCCC2	1	1.5	.	.	-1%
COc1cccc(NC(=O)N2CCCC(C(=O)Nc3ccccc3OC)C2)c1 (configuration not stated)	10	1.4	0	-48	-5%
O=C(OCC1COc2ccccc2O1)c1ccccc1F (configuration not stated)	83	-0.4	7	-39	33%
CCc1cc2c3c(c1)C1(C(=O)N3C(C)(C)CC2C)C(C#N)=C(N)N2C(=C1C#N)Nc1ccccc12 (configuration not stated)	89	12	-12	-16	?
Cc1ccccc1OCCNC(=O)c1ccccc1Sc1ccccc1C#N	0	-1.6	-17	-29	4%

From PubChem
